Screening data (PubChem)
ID4 binder: binds human ID4 protein on microarray; P47928; small molecule microarray, Flag-ID4 binding, fluorescence F/B; calls only; 31,000 compounds, 1.2% hits;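 active means spot signal over background at p below 0.07 in all four prints; compounds were printed on slides so no solution concentration is given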;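 further: a binder raises fluorescence above local background on the spot; about 2 pmol printed per array spot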
Target sequence (P47928 whole entry, looked up): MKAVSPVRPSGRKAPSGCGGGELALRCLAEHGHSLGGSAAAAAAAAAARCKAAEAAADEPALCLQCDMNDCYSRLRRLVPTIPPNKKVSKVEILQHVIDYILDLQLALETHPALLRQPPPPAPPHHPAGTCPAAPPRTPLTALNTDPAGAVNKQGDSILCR
Calls only.

COCC#Cc1ccc2c(c1)O[C@H](CN(C)Cc1ccc(F)cc1)[C@@H](C)CN([C@H](C)CO)S2(=O)=O was read as ID4 binder inactive.
Screening Cn1c(SCC(=O)Nc2cccc(Br)c2)nnc1-c1cccs1 returned ID4 binder inactive.
`Cc1cc(C)c(S(=O)(=O)NCC(=O)Nc2ccc(C(C)C)cc2)c(C)c1` gave ID4 binder inactive.
For C[C@@H]1CN([C@@H](C)CO)C(=O)c2cc(C#CCN(C)C)cnc2O[C@@H]1CN(C)C the results were ID4 binder inactive.
`Cc1ccc(C)c(NC(=O)CN(c2ccc(Br)cc2)S(C)(=O)=O)c1` gave ID4 binder inactive.
`CCOC(=O)c1ccc(COC(=O)c2ccc3ccccc3c2O)o1` gave ID4 binder inactive.
`CC(=O)N(C)C[C@@H]1Oc2ncc(-c3ccc(F)cc3)cc2C(=O)N([C@H](C)CO)C[C@H]1C` gave ID4 binder inactive.
Cc1ccc(N(CC(=O)Nc2cccc3ccccc23)S(C)(=O)=O)cc1Cl was read as ID4 binder inactive.
Screening C[C@@H]1CN([C@@H](C)CO)C(=O)c2cc(C3=CCCC3)cnc2O[C@H]1CN(C)C(=O)c1ccccc1 returned ID4 binder inactive.
Screening COc1ccc(-c2nc3ccccc3s2)cc1NC(=O)COc1ccc(Cl)cc1Cl returned ID4 binder inactive.
`COc1ccccc1-c1cnc2c(c1)C(=O)N([C@@H](C)CO)C[C@H](C)[C@@H](CN(C)Cc1ccccc1)O2` gave ID4 binder inactive.
C[C@H]1CN([C@@H](C)CO)C(=O)c2cc(-c3ccccc3)cnc2O[C@@H]1CN(C)Cc1cccnc1 was read as ID4 binder inactive.
For COc1ccc(C(Nc2cccc(C)n2)c2ccc3ccc(C)nc3c2O)c(OC)c1OC (stereo not given) the results were ID4 binder inactive.
`C[C@@H]1CN([C@H](C)CO)C(=O)c2cc(-c3cccc(F)c3)cnc2O[C@@H]1CN(C)C(=O)Nc1cc(F)ccc1F` gave ID4 binder inactive.
`CCn1c(SCC(=O)Nc2ccc3c(c2)OCCO3)nnc1-c1ccco1` gave ID4 binder inactive.
For CN(CC(=O)Nc1ccc(F)cc1F)S(=O)(=O)c1ccccc1 the results were ID4 binder inactive.
For CN1CCN(C(=O)C[C@H]2CC[C@@H](NC(=O)Nc3ccccc3F)[C@@H](CO)O2)CC1 the results were ID4 binder inactive.
Screening COc1ccc(C(C)(C)C)cc1S(=O)(=O)NC1CC(C)(C)NC(C)(C)C1 returned ID4 binder inactive.
`CCCN(C)C[C@H]1Oc2cc(C#Cc3ccc(F)cc3)ccc2S(=O)(=O)N([C@@H](C)CO)C[C@H]1C` gave ID4 binder inactive.
For CCOC(=O)c1ccccc1NC(=O)CC1Sc2ccc(C(F)(F)F)cc2NC1=O (stereo not given) the results were ID4 binder inactive.

Gathered by group, those above with four or more nitrogen atoms.
Screening Cn1c(SCC(=O)Nc2cccc(Br)c2)nnc1-c1cccs1 returned ID4 binder inactive.
For C[C@@H]1CN([C@@H](C)CO)C(=O)c2cc(C#CCN(C)C)cnc2O[C@@H]1CN(C)C the results were ID4 binder inactive.
C[C@H]1CN([C@@H](C)CO)C(=O)c2cc(-c3ccccc3)cnc2O[C@@H]1CN(C)Cc1cccnc1 was read as ID4 binder inactive.
`C[C@@H]1CN([C@H](C)CO)C(=O)c2cc(-c3cccc(F)c3)cnc2O[C@@H]1CN(C)C(=O)Nc1cc(F)ccc1F` gave ID4 binder inactive.
`CCn1c(SCC(=O)Nc2ccc3c(c2)OCCO3)nnc1-c1ccco1` gave ID4 binder inactive.
For CN1CCN(C(=O)C[C@H]2CC[C@@H](NC(=O)Nc3ccccc3F)[C@@H](CO)O2)CC1 the results were ID4 binder inactive.

(listing goes on)
Cc1cc(=O)[nH]c(SCC(=O)Nc2ccc(I)cc2)n1 was read as ID4 binder inactive.
COCC(=O)N1[C@H](CO)[C@H](c2ccccc2)[C@@H]1C#N was read as ID4 binder inactive.
Screening O=C(Nc1ccccc1[N+](=O)[O-])c1cccc(S(=O)(=O)Nc2ccc(Br)cc2)c1 returned ID4 binder inactive.
For O=C(CSc1nnc(-c2ccccc2)c(-c2ccccc2)n1)Nc1cccc(C(F)(F)F)c1 the results were ID4 binder inactive.
For Cc1c(NC(=O)CN(c2ccccc2F)S(C)(=O)=O)cccc1[N+](=O)[O-] the results were ID4 binder inactive.
O=C(NCc1csc(-c2cccs2)n1)c1ccno1 was read as ID4 binder inactive.
Screening CC1CCc2c(sc3ncnc(SCC(=O)Nc4ccc5c(c4)OCCO5)c23)C1 (stereo not given) returned ID4 binder inactive.
Screening N#Cc1c(NC(=O)CCn2cnc3ccccc3c2=O)sc2c1CCCC2 returned ID4 binder inactive.
For CC(C)NC(=O)N[C@H]1C=C[C@@H](CC(=O)NCCCN(C)C)O[C@@H]1CO the results were ID4 binder inactive.
Screening C[C@@H]1CN([C@H](C)CO)C(=O)c2cc(-c3cccnc3)cnc2O[C@H]1CN(C)C returned ID4 binder inactive.
Screening COc1ccc(CN(C)C[C@@H]2Oc3ccc(N(C)C)cc3CC(=O)N([C@@H](C)CO)C[C@@H]2C)cc1 returned ID4 binder inactive.
COc1ccccc1-c1cnc2c(c1)C(=O)N([C@H](C)CO)C[C@@H](C)[C@@H](CN(C)C(=O)CN(C)C)O2 was read as ID4 binder inactive.
`CC(C)NC(=O)N[C@H]1C=C[C@@H](CC(=O)NC2Cc3ccccc3C2)O[C@@H]1CO` gave ID4 binder inactive.
For COc1ccc(NC(=O)CN2CCC(C(N)=O)(N3CCCCC3)CC2)cc1 the results were ID4 binder inactive.
For Cc1ccc(C(C)C)c(OCC(=O)Nc2ncc(I)cc2C)c1 the results were ID4 binder inactive.
COC(=O)[C@H]1[C@H]2C[C@@H]3c4[nH]c5cc(OC)ccc5c4CCN3C[C@H]2C[C@@H](OC(=O)/C=C/c2cc(OC)c(OC)c(OC)c2)[C@@H]1OC was read as ID4 binder inactive.
Screening C[C@@H]1CN([C@H](C)CO)C(=O)c2cc(-c3ccc(F)cc3)cnc2O[C@H]1CN(C)CC1CCOCC1 returned ID4 binder inactive.
CCC(=O)N[C@H]1C=C[C@@H](CC(=O)NCC2CCCCC2)O[C@@H]1CO was read as ID4 binder inactive.
For O=C(O)C1(NS(=O)(=O)c2ccc(F)c(Cl)c2)CCCCC1 the results were ID4 binder inactive.
Screening O=C(C[C@@H]1C=C[C@@H](NC(=O)C2CC2)[C@H](CO)O1)Nc1ccccc1 returned ID4 binder inactive.
For O=C(COc1cc(Cl)c(Cl)cc1Cl)NCCN1CCOCC1 the results were ID4 binder inactive.
`C[C@H]1CN([C@@H](C)CO)S(=O)(=O)c2ccc(-c3ccc(C#N)cc3)cc2O[C@H]1CN(C)C(=O)C1CC1` gave ID4 binder inactive.
C[C@@H]1CN([C@@H](C)CO)S(=O)(=O)c2ccc(/C=C/c3ccccc3)cc2O[C@@H]1CN(C)C(=O)c1cccnc1 was read as ID4 binder inactive.
For C[C@@H]1CN([C@H](C)CO)C(=O)c2ccccc2-c2ccccc2CO[C@@H]1CN(C)Cc1ccncc1 the results were ID4 binder inactive.
Cc1cccc(NC(=O)Cn2nc(-c3ccc(Cl)cc3)c3ccccc3c2=O)c1 was read as ID4 binder inactive.
Cc1cc(C)nc(Nc2n[nH]c(-c3cccnc3)n2)n1 was read as ID4 binder inactive.
Cc1cc(Cl)ccc1N(CC(=O)Nc1c(C)n(C)n(-c2ccccc2)c1=O)S(C)(=O)=O was read as ID4 binder inactive.
Screening CC(C)c1cn(CC[C@H]2CC[C@@H](NC(=O)C3CC3)[C@@H](CO)O2)nn1 returned ID4 binder inactive.
For COC(=O)COc1cccc(NC(=O)c2ccc(C)cc2)c1 the results were ID4 binder inactive.
`C[C@@H]1CN([C@H](C)CO)C(=O)c2cc(C#Cc3cccc(F)c3)cnc2O[C@@H]1CN(C)C(=O)C1CC1` gave ID4 binder inactive.
C[C@@H]1CN([C@H](C)CO)C(=O)c2cc(C#CC3(O)CCCC3)cnc2O[C@@H]1CN(C)C was read as ID4 binder inactive.
`CCC(Oc1cccc(NC(=O)c2ccc([N+](=O)[O-])cc2)c1)C(=O)c1ccccc1` (stereo not given) gave ID4 binder inactive.
`CC(C)(C)c1cc(C(F)(F)F)c(C#N)c(SCC(=O)Nc2cccc(F)c2)n1` gave ID4 binder inactive.
C[C@H](CO)N1C[C@H](C)[C@@H](CN(C)CC2CCCCC2)Oc2ncc(C#C[C@@H](C)O)cc2C1=O was read as ID4 binder inactive.
Screening O=C(C[C@H]1C=C[C@@H](NC(=O)c2ccccc2)[C@H](CO)O1)Nc1ccc(-c2ccccc2)cc1 returned ID4 binder inactive.
`CC(C)CC#Cc1ccc2c(c1)O[C@H](CN(C)Cc1ccc3c(c1)OCO3)[C@H](C)CN([C@H](C)CO)S2(=O)=O` gave ID4 binder inactive.
Screening CCCC#Cc1ccc2c(c1)O[C@H](CN(C)Cc1cncnc1)[C@@H](C)CN([C@H](C)CO)S2(=O)=O returned ID4 binder inactive.
Cc1c(NC(=O)CN(c2cc(Cl)c(Cl)cc2Cl)S(C)(=O)=O)cccc1[N+](=O)[O-] was read as ID4 binder inactive.
`C[C@@H]1CN([C@H](C)CO)C(=O)c2cc(-c3ccc(F)cc3)cnc2O[C@@H]1CN(C)CC1CCCC1` gave ID4 binder inactive.
Cc1cccc(CSc2nc3c(c(=O)[nH]2)C(C(C)C)C2=C(CC(C)(C)CC2=O)N3)c1 (stereo not given) was read as ID4 binder inactive.
For CN(C)C(=O)C[C@@H]1CC[C@@H](NC(=O)C2CCC2)[C@H](CO)O1 the results were ID4 binder inactive.
`Cc1ccc(-n2c(SCC(=O)Nc3ccc(Br)cc3)nnc2-c2cccs2)cc1` gave ID4 binder inactive.
`COC(=O)c1ccc(NC(=O)CSc2nc(-c3ccccc3)cc(=O)[nH]2)cc1` gave ID4 binder inactive.
`COC(=O)c1cccc(NC(=O)CSc2nnc(-c3cc(OC)cc(OC)c3)o2)c1` gave ID4 binder inactive.
CCOC(=O)c1c(NC(=S)Nc2cnccn2)sc2c1CCCCCC2 was read as ID4 binder inactive.
C[C@H](CO)N1C[C@H](C)[C@H](CN(C)C(=O)C2CC2)Oc2ncc(C3=CCCC3)cc2C1=O was read as ID4 binder inactive.
For COc1ccccc1-c1ccc2c(c1)O[C@@H](CN(C)CC1CC1)[C@@H](C)CN([C@H](C)CO)S2(=O)=O the results were ID4 binder inactive.
For COc1cc(OC)c(C2=NOC(C(=O)Nc3cccnc3)C2)cc1Cl (stereo not given) the results were ID4 binder inactive.
Screening O=C(Nc1sccc1C(=O)NCc1ccco1)c1cccnc1 returned ID4 binder inactive.
`O=C(CC1CC1)Nc1ccc2c(c1)[C@H]1C[C@@H](CC(=O)N3CCCCC3)O[C@H](CO)[C@H]1O2` gave ID4 binder inactive.

An excerpt from further up:
CCOC(=O)c1c(NC(=S)Nc2cnccn2)sc2c1CCCCCC2 was read as ID4 binder inactive.
C[C@H](CO)N1C[C@H](C)[C@H](CN(C)C(=O)C2CC2)Oc2ncc(C3=CCCC3)cc2C1=O was read as ID4 binder inactive.
For COc1ccccc1-c1ccc2c(c1)O[C@@H](CN(C)CC1CC1)[C@@H](C)CN([C@H](C)CO)S2(=O)=O the results were ID4 binder inactive.
For COc1cc(OC)c(C2=NOC(C(=O)Nc3cccnc3)C2)cc1Cl (stereo not given) the results were ID4 binder inactive.
Screening O=C(Nc1sccc1C(=O)NCc1ccco1)c1cccnc1 returned ID4 binder inactive.
`O=C(CC1CC1)Nc1ccc2c(c1)[C@H]1C[C@@H](CC(=O)N3CCCCC3)O[C@H](CO)[C@H]1O2` gave ID4 binder inactive.

More compounds follow:
O=C(Nc1ccccc1)C1=C[C@@H](c2ccc3c(c2)Cc2ccccc2-3)C[C@@H](OCCCCO)O1 was read as ID4 binder inactive.
CC12CCCCC1(O)N(O)C(C(=O)c1ccccc1)=N2 (stereo not given) was read as ID4 binder inactive.
Screening CCn1cc(CN(C)C(=S)Nc2ccc(OC)c(OC)c2)c(C)n1 returned ID4 binder inactive.
Screening CC(C)NC(=O)N(C)C[C@H]1Oc2ncc(C#Cc3ccncc3)cc2C(=O)N([C@@H](C)CO)C[C@@H]1C returned ID4 binder inactive.
Screening COCCOC(=O)N1C(=O)[C@@]2(c3cc(C#CCC(C(=O)OC)C(=O)OC)ccc31)[C@H](c1ccc(OCCO)cc1)N1[C@H](c3ccccc3)[C@H](c3ccccc3)OC(=O)[C@H]1[C@@H]2C(N)=O returned ID4 binder inactive.
`C[C@@H]1CN([C@H](C)CO)S(=O)(=O)c2ccc(-c3ccc(F)cc3)cc2O[C@H]1CN(C)C` gave ID4 binder inactive.
For O=C(C[C@H]1C=C[C@@H](NC(=O)C2CCC2)[C@@H](CO)O1)NCC1CC1 the results were ID4 binder inactive.
`COc1cc([N+](=O)[O-])ccc1NC(=O)CN(C)S(=O)(=O)c1ccccc1` gave ID4 binder inactive.
For CCCC(=O)Nc1ccc2nc(SCc3ccccc3C#N)sc2c1 the results were ID4 binder inactive.
O=C(CSC1CC(=O)N(c2ccccc2)C1=O)Nc1ccccc1F (stereo not given) was read as ID4 binder inactive.
Screening C/C=C/c1ccc2c(c1)O[C@@H](CN(C)CCC)[C@@H](C)CN([C@H](C)CO)S2(=O)=O returned ID4 binder inactive.
`COc1ccccc1-c1ccc2c(c1)O[C@@H](CN(C)C)[C@@H](C)CN([C@@H](C)CO)S2(=O)=O` gave ID4 binder inactive.
For Cc1ccc(-c2noc(CSc3nnc(-c4cccs4)n3C)n2)cc1 the results were ID4 binder inactive.
Screening O=C(c1ccc2c(c1)CCO2)N1CCN(C(c2ccccc2)c2ccccc2)CC1 returned ID4 binder inactive.
`O=C(Cn1c(=O)oc2ccccc21)Nc1cccc([N+](=O)[O-])c1` gave ID4 binder inactive.
For Cc1ccc(-c2nc3ccccc3o2)cc1NC(=O)CN1C(=O)c2ccccc2C1=O the results were ID4 binder inactive.
Screening COc1ccc(C)cc1NC(=O)CNS(=O)(=O)c1c(C)cc(C)cc1C returned ID4 binder inactive.
CC(Oc1ccc(Br)cc1)C(=O)NCCN1CCOCC1 (stereo not given) was read as ID4 binder inactive.

An excerpt, so the mix of outcomes need not match the whole.
